Screening data deposited in PubChem BioAssay by National Center for Advancing Translational Sciences (NCATS).
Marburg entry = qHTS for Inhibitors of binding or entry into cells for Marburg Virus | actives 6.5% (n = 18,000) | Potency, µM (top dose mostly 49.2 µM), for the others: top-dose activity change, negative = inhibition, hits mostly inhibitors | Marburg virus pseudotype entry/binding inhibition, cell-based; control for the full effect not named in the record; many of its hits are not listed in these tables; active means well fitted inhibition curve with a large enough effect; inconclusive means small, poorly fitted or top-dose-only effect; inactive means no such curve, though single readings can be large or run the other way; tested in HEK293 cells; note: luciferase read-out
Lassa entry = qHTS for Inhibitors of binding or entry into cells for Lassa Virus; Potency, µM (top dose mostly 49.2 µM), for the others: at the highest dose activity change, negative = inhibition, most hits filed as inhibitors; Lassa virus pseudotyped entry inhibition, cell-based qHTS; control for the full effect not named in the record; many of its hits are not listed in these tables; actives 4.1% (n = 18,000); AID 720533, 2013; active = well fitted inhibition curve with a large enough effect; inconclusive = small, poorly fitted or top-dose-only effect; inactive = no such curve, though single readings can be large or run the other way; tested in HEK293 cells; note: luciferase read-out
Active calls of the source: *; ? = inconclusive; / = not tested or not shown; & = joins results of further samples; [ ] = dose if it differs, or a comment. % is set by controls: 0 for no effect and ±100 for the full control effect; potency is the fitted concentration of half-maximal effect. Not all compounds are listed; rates above refer to the full screens.

SMILES	Marburg entry	Lassa entry
CO[C@@H]1[C@@H](O[C@@H]2O[C@H](C)[C@@H](O[C@H]3C[C@@](C)(O)[C@@H](O)[C@H](C)O3)[C@H](N(C)C)[C@H]2O)[C@@H](CC=O)C[C@@H](C)[C@@H](O[C@@H]2CC[C@H](N(C)C)[C@@H](C)O2)/C=C/C=C/C[C@@H](C)OC(=O)C[C@H]1OC(C)=O	3.16µM*	?
C[C@H](/C=C/[C@H](C)C(C)(C)O)[C@H]1CC[C@H]2/C(=C/C=C3C[C@@H](O)C[C@H](O)C3)CCC[C@]12C	-6.7%	?
C=C1CCC(O)C/C1=C/C=C1\CCC[C@@]2(C)C(C(C)/C=C/C(C)C(C)C)CC[C@@H]12 (stereo not given in full)	-29.4%	-21.7%
C=CCc1ccc(O)c(-c2cc(CC=C)ccc2O)c1	8.9%&-27.0%	-14.4%&-5.0%
CC(C)C(NC(=O)c1ccccn1)c1nnc2n1CCN(Cc1ccc3ccccc3c1)CC2 (stereo not given)	-7.7%	-4.6%
CC(C)[C@H]1COCCS(=O)(=O)N1Cc1ccccc1-c1cccc2c1sc1ccccc12	-18.2%	-17.2%
CCC(/C=C1\Sc2ccc(OC)cc2N1CCO)=C\c1sc2ccc(OC)cc2[n+]1CCO	4.7%	-19.9%
CCN1Cc2c(cc(OC)c(OC)c2OC)-c2ccccc2S1(=O)=O	15.4%	8.7%
C[C@@]1(O)CCOC(=O)C1	3.6%[17.8 µM]	-2.5%[17.8 µM]
CC1C(=O)N(Cc2cn(Cc3ccco3)nn2)CCS(=O)(=O)N1Cc1ccc(-c2ccccc2C(F)(F)F)cc1 (stereo not given)	-14.3%	14.5%
O=C1OCCN1C(=O)[C@H]1[C@H](c2ccc(F)cc2)C(c2cccc(Cl)c2)=NN1c1ccccc1	-16.9%	-19.7%
c1cncc(-c2nccc(-n3ccnc3)n2)c1	7.8%	-8.7%
CN(CCc1ccc(Cl)c(Cl)c1)[C@@H]1CCCC[C@@H]1N1CCCC1	7.94µM*	?
CN1CC[C@@H]2CN3CCc4cccc(c43)[C@H]2C1	?	-5.9%
C=C(C)[C@H]1O[C@H]2CC[C@@]3(C)[C@@](O)(CC[C@H]4[C@@H]5OC(C)(C)[C@H]6C[C@@H]7C(=C)Cc8c(Cl)cc9[nH]c(c5c9c8[C@@]76O)[C@@]43C)[C@]23O[C@@H]3[C@H]1O	?	25.1µM*
CC(=O)Oc1ccccc1C(=O)Oc1ccccc1C(=O)O	1.6%	-8.9%
N#Cc1ccc(OCc2cn(CC(=O)c3ccc(O)cc3)nn2)cc1	13.6%	-15.1%
CCC1C(=O)NCCN1Cc1ccc2c(c1)CN(Cc1cc(OC)ccc1OC)CCO2 (stereo not given)	-1.0%	-8.5%
O=C(Nc1cccc2c(=O)cc(-c3nn[nH]n3)oc12)c1ccc(OCCCCc2ccccc2)cc1	12.4%	-5.0%
Cc1ncc2c(c1CNC(=O)c1cncs1)CCN(C(=O)c1ccsc1)C2	7.9%	-8.6%
CN1CCN(c2cc(-c3ccc(N(C)C)cc3)ncn2)CC1	0.8%	14.2%
CC(=O)[C@@]1(O)CC[C@H]2[C@@H]3CCC4=CC(=O)CC[C@]4(C)[C@H]3CC[C@@]21C	-5.8%	-29.8%
C[C@]12C[C@H]3S[C@H]3C[C@@H]1CC[C@@H]1[C@@H]2CC[C@]2(C)[C@@H](O)CC[C@@H]12	-11.3%[17.8 µM]	-12.8%[17.8 µM]
CCCCCCC[n+]1ccc(-c2cc[n+](CCCCCCC)cc2)cc1	-1.5%	-20.4%
CN1[C@@H](c2ccccc2)COc2c(Cl)cccc2S1(=O)=O	-9.5%	-44.3%
Cc1onc(-c2c(F)cccc2Cl)c1C(=O)N[C@@H]1C(=O)N2[C@@H]1SC(C)(C)[C@@H]2C(=O)O	4.4%&1.4%	-8.4%&-1.7%
O=C(O)[C@H]1CN[C@H](C(=O)O)C1	29.4%	-0.8%
COC(=O)C1=C(C(=O)OC)[C@@H]2N(C)c3ccccc3[C@@]23C[C@@H](C(=O)OC)N(C(=O)NC(C)(C)C)C3=N1	14.5%[8.59 µM]	/
CCC/C=C/C=C/C(=O)O[C@H]1/C(=C/C(=O)OC)C[C@H]2C[C@H]([C@@H](C)O)OC(=O)C[C@H](O)C[C@@H]3C[C@H](OC(C)=O)C(C)(C)[C@](O)(C[C@@H]4C/C(=C/C(=O)OC)C[C@H](/C=C/C(C)(C)[C@]1(O)O2)O4)O3	?	?
CCN1CCC(N[C@H]2C[C@@H](C(=O)NC)N(Cc3cccc4ccccc34)C2)CC1	?	-4.2%

Arranged by molecular weight (falling): part of the list above
SMILES	Marburg entry	Lassa entry
CCC/C=C/C=C/C(=O)O[C@H]1/C(=C/C(=O)OC)C[C@H]2C[C@H]([C@@H](C)O)OC(=O)C[C@H](O)C[C@@H]3C[C@H](OC(C)=O)C(C)(C)[C@](O)(C[C@@H]4C/C(=C/C(=O)OC)C[C@H](/C=C/C(C)(C)[C@]1(O)O2)O4)O3	?	?
CC(=O)[C@@]1(O)CC[C@H]2[C@@H]3CCC4=CC(=O)CC[C@]4(C)[C@H]3CC[C@@]21C	-5.8%	-29.8%
O=C(O)[C@H]1CN[C@H](C(=O)O)C1	29.4%	-0.8%

Next part.
SMILES	Marburg entry	Lassa entry
CCn1c(-c2nonc2N)nc2cncc(C(=O)NCCNC)c21	?	/
COc1ccccc1C(=O)N[C@@H]1c2ccccc2C2(CCN(Cc3nccs3)CC2)[C@H]1OC	-3.9%	?
COc1cc(O)c(C)c(O)c1	-4.0%	3.1%
C[C@@H](c1ccccc1)N1C(=O)[C@@H]2[C@H]3[C@H](O)[C@H](O)CC(=NOC[C@@H](O)COCc4ccco4)[C@H]3CC[C@H]2C1=O	1.0%[8.59 µM]	-3.1%[8.59 µM]
C=CCN=C=S	18.5%	-12.6%
COc1cc(OC)c2c(-c3cccc(-c4ccc(CO)cc4)c3)cc(=O)oc2c1	1µM*	?
O=C(/C=C/c1ccc2c(c1)OCO2)c1ccccc1	9.3%	15.8%
COCC(=O)Nc1cc(C(=O)N2CCN(C3CCCC3)C(=O)C2)c2c(c1)nc(-c1ccncc1)n2C	5.4%	-8.1%
O=C1NC(=O)c2cc(Nc3ccccc3)c(Nc3ccccc3)cc21	?	11.2µM*
CC(C)c1ccc(CN2CCC3(CCC(CNC(=O)c4ccn(C)n4)O3)CC2)cc1 (stereo not given)	?	-15.8%
CCc1cccc(CC)c1NC1=NCCN1	-5.7%	-10.4%
N#Cc1cccc(-c2cc(NCc3cccs3)ncn2)c1	38.9%[activator]	26.1%
COC(=O)C1=C(C)N(Cc2ccccc2)C(=NCc2cc(OC)c(OC)c(OC)c2)NC1CCc1ccccc1 (stereo not given)	?	-19.2%[8.59 µM]
CC(=O)Oc1cccc(C)c1	18.8%&18.5%	5.6%&-1.4%
C[C@@H](Cc1ccccc1)NCCC(c1ccccc1)c1ccccc1	7.94µM*	?
CC(NC(=O)c1ccco1)c1nnc2n1CCN(Cc1ccc(N(C)C)cc1)CC2 (stereo not given)	8.0%	-7.9%
CC(=O)OC1CC2C(C)(C)C(O)C=C[C@@]2(C)C2CC[C@]3(C)C(=CC(=O)OC3c3ccoc3)[C@]12C (stereo not given in full)	?	2.7%
CCCC[C@@H](C)[C@@H](OC(=O)C[C@@H](CC(=O)O)C(=O)O)[C@H](C[C@@H](C)C[C@H](O)CCCC[C@@H](O)C[C@H](O)[C@H](C)N)OC(=O)C[C@H](CC(=O)O)C(=O)O	24.6%	-11.0%
C#CCN[C@@H]1CCc2ccccc21	-8.0%	-10.2%
Cc1cc(C)c(CN2CCC3(CCC(CNC(=O)c4ccn(C)n4)O3)CC2)cc1C (stereo not given)	-26.3%	-9.4%
COC(=O)CC1C2(C)CC34OC5(C)O[C@@]6(C7/C(=C(/OC)C(C)C)C(=O)OC(c8ccoc8)[C@@]7(C)C(OC(=O)C(C)C)C(OC)[C@]6(O5)[C@@]13C)C(OC)[C@]4(OC)C2OC(C)=O (stereo not given in full)	7.08µM*	?
COc1ccccc1-c1ccnc(-n2ncc(C(=O)N(C)C(C)c3nc(C)cs3)c2C2CC2)n1 (stereo not given)	7.3%	3.4%
O=C(NCC1Cc2cc(F)cc(-c3cccnc3)c2O1)c1cnn(-c2ccccc2)c1 (stereo not given)	-13.2%	-3.2%
C#C[C@]1(O)CC[C@H]2[C@@H]3CCC4=C/C(=N/O)CC[C@@H]4[C@H]3CC[C@@]21CC	23.7%	?
CN(Cc1ccco1)C(=O)c1cc(NC(=O)C2CCC2)c2c(c1)nc(-c1ccncc1)n2C	-11.6%	-14.0%
C=C1C(=C/C=C2\CCC[C@]3(C)[C@@H]([C@H](C)/C=C/[C@@H](O)C4CC4)CC[C@@H]23)C[C@@H](O)C[C@@H]1O	-24.8%	14.1µM*
CCN(Cc1ccccc1)S(=O)(=O)c1ccccc1Br	-3.7%	-19.0%
Cc1cc(=O)oc2cc(O[C@@H]3O[C@H](C(=O)O)[C@@H](O)[C@H](O)[C@H]3O)ccc12	1.0%	-8.1%
COc1cc(/C=C/C(=O)O)ccc1O	7.6%	-11.9%
COc1ccc2c(c1)C(=O)[C@@H](OC(=O)NCCc1ccc(OC)c(OC)c1)[C@H](c1ccc(OC)c(Br)c1)O2	1.7%	-14.2%
CN(N=O)C(=O)N[C@H]1C(O)OC(CO)[C@@H](O)[C@H]1O (stereo not given in full)	3.3%	-8.6%
CC1=C(/C=C/C(C)=C/C=C/C(C)=C/C(=O)Oc2c(C)c(C)c3c(c2C)CC[C@@](C)(CCC[C@H](C)CCC[C@H](C)CCCC(C)C)O3)C(C)(C)CCC1	2.7%	-15.5%
S=C=S	6.5%	-6.4%
CCCCCCCCCCCCCCCCCCCCCCCCCCCCCC	-0.9%	-5.3%
COc1cc(-c2cc(=O)c3c(O)cc(O)cc3o2)ccc1O	19.9%	2.0%
Cc1c(C(=O)NCc2ccc3c(c2)OCO3)cnn1-c1ncc2c(n1)-c1ccccc1CC2	14.5%	23.4%
C=C(C(C)=O)C(O)c1cccc(OC)c1 (stereo not given)	?	1.5%
C[C@H](NC[C@H](O)CP(=O)(O)CC1CCCCC1)c1ccc(Cl)c(Cl)c1	2.9%&7.5%	1.8%&-3.3%
O=C1C[C@@H](c2ccc(O)c(O)c2)Oc2c1ccc(O[C@@H]1O[C@H](CO)[C@@H](O)[C@H](O)[C@H]1O)c2O	?	-0.6%
CC(=O)O[C@H]1C[C@@H]2CC[C@@H]3[C@H](CC[C@@]4(C)[C@H]3C[C@H]([N+]3(C)CCCCC3)[C@@H]4OC(C)=O)[C@@]2(C)C[C@@H]1[N+]1(C)CCCCC1	5.4%	-12.2%
CC(=O)NNC(=O)N1Cc2ccccc2Oc2ccc(Cl)cc21	4.9%	-11.1%
COc1cccc(CN2CCC3(CC2)c2ccccc2[C@@H](NC(=O)c2ccccc2OC)[C@@H]3O)c1	?	-19.8%
C[C@@H]1[C@H](O)[C@@H](C)/C=C/C=C/CC/C=C/C=C/C=C/C=C/[C@H](O[C@H]2O[C@@H](C)[C@H](O)[C@@H](N)[C@H]2O)CC2O[C@](O)(C[C@@H](O)[C@H](O)CC[C@@H](O)C[C@@H](O)C[C@@H](O)CC(=O)O[C@H]1C)C[C@H](O)[C@H]2C(=O)O	-35.1%	-22.2%
C[N+]1([O-])CCC[C@@H]1c1cccnc1 (stereo not given in full)	18.9%	12.6%
O=C1CC(c2ccccc2O)Oc2ccc(O)cc21 (stereo not given)	26.8%	?
O=C(O)CCC/C=C\C/C=C\C=C\[C@@H](O)C/C=C\CCCCCO	-3.9%	4.1%
COc1ccc(C(=O)NCCN2Cc3ccccc3OC(c3ccsc3)C2)c(OC)n1 (stereo not given)	-9.0%	3.5%
CCOC(=O)[C@@]1([C@@H](NC(=O)OC)c2ccco2)CCCC1=O	-8.5%[8.59 µM]	-4.2%[8.59 µM]
CC(C)c1ncc([N+](=O)[O-])n1C	0.9%	-23.3%
COc1ccc(N2C[C@H](C)[C@@H](CC(=O)Nc3ccccc3)C2=O)cc1	21.3%	5.4%
Cc1ncc2c(c1O)COP(=O)(O)OC2	-16.5%	1.2%
Cc1ccc([C@H]2C[C@@H](O)[C@H](n3cc(COC(=O)c4ccccc4)nn3)CN2C(=O)C2CCCCC2)cc1	?	/
CCc1ccc2c(O)c3c(cc2c1C(=O)OC)C(=O)c1c(O)ccc(O)c1C3=O	0.5%	-12.5%
CCOC(=O)C1=C(O)C(=O)N(Cc2ccccc2)C1	5.8%	-7.9%
c1ccc(C2CC2)c(OCC2=NCCN2)c1	?	-6.1%&-4.5%&4.3%
COc1cccc(C2(CC(=O)N3CCN(c4ccccc4O)CC3)CC(=O)N(C3CCCC3)C2=O)c1 (stereo not given)	-13.8%	-27.4%
CC(C)=CC1C(CO)C1(C)C (stereo not given)	10.7%	-6.4%
CCCCCCCCc1[se]c2ccccc2c1I	1.4%	3.6%
COc1cccc(COc2cc(-n3cnc4ccccc43)sc2C(N)=O)c1	12.5µM*	?
CC1(C)C[C@@H]1C(=O)N/C(=C\CCCCSC[C@H](N)C(=O)O)C(=O)O	-1.7%&13.1%	-14.6%&5.3%
O=S(=O)(NCCc1ccccc1)c1ccc(F)cc1Br	15.0%	13.7%
Oc1ccc(OCc2ccccc2)cc1	-25.2%[17.8 µM]	?

Whole records, looked up by structure:
Profile of `CC(C)=CC1C(CO)C1(C)C` (stereo not given) → Marburg entry = 10.7%; Lassa entry = -6.4%
Profile of `CCOC(=O)C1=C(O)C(=O)N(Cc2ccccc2)C1` → Marburg entry = 5.8%; Lassa entry = -7.9%
